BJeLR viability – BJeLR cell viability loss | BJeLR (HRASV12) viability, CellTiter-Glo ATP luminescence, 48 h; reference of the scale not given here | inhibition, % (test concentration not listed) | hit rate 0.17% among 300,000;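 active means replicate mean above 50%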;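 further: 50 nL library stock added to about 25 µL; numbers are from one replicate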
Sa ugtP lethal – growth inhibition of S. aureus ugtP deletion strain | growth inhibition, % (concentration not given with the values) | S. aureus RN4220 ugtP deletion, OD600 growth, 16 h; some inactives read as strong as hits | hit rate 0.54% among 330,000;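 active means z-score under -3 and OD600 up to 0.15 on both plates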;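 further: plate controls were untreated wells for no effect and antibiotic for full effect; wells of about 80 µL received 100 nL stock; the first replicate is given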
Mtb hypoxia rep – Mtb hypoxia fluorescent reporter inhibition; M. tuberculosis hypoxia-regulated fluorescent reporter, fluorescence; fluorescence inhibition, % (test concentration not listed); hit rate 0.1% among 300,000;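 active means 35 to 45% if threefold the growth effect, above 45% if 1.5-fold the growth effect; inactive means the rest, general growth blockers included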;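 further: wells of about 50 µL received 100 nL stock; 0% = vehicle wells and 100% = reference inhibitor wells; whole bacteria with a GFP reporter of the hypoxia response; strong numbers were not always called active; many hits fall short of the cut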
Bead autofluor – counter-screen for toxin protease inhibitors: compound fluorescence | compound autofluorescence counterscreen, microsphere flow cytometry; active compounds read high | fluorescence intensity (no concentration beside the values) | hit rate 3.1% among 360,000 | AID 624483;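 active means at least 3 SD above the mean of all compounds, about 16000 in these data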;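 further: 100 nL of 1 mM stock went into each well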
RN4220 kill – S. aureus RN4220 growth inhibition | OD600, 16 h | inhibition, % (no concentration beside the values) | hit rate 0.33% among 330,000;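 active means z-score of -3 or lower and OD600 up to 0.18 on both plates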;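 further: plate controls were untreated cells for no effect and reference antibiotic for full effect; stock transfer was 100 nL into about 80 µL; one replicate is shown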
PrP UTR inh – suppresses PrP 5' UTR mRNA reporter expression; cell-based PrP 5' UTR mRNA reporter, plate reader; inhibition, % (test concentration not listed); hit rate 0.35% among 340,000;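 active means every replicate at 50% or more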;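 further: 0 = median of the neutral control wells; tested in H4 reporter cells; numbers are from one replicate; inactives centre near -14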
Mtb hypoxia rep growth – second read-out of Mtb hypoxia rep, no call of its own (marks repeat the call); growth inhibition, %; measured here: M. tuberculosis growth (absorbance);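 0% = vehicle and 100% = reference antibiotic; read after six days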
An asterisk follows results filed as active. Random draw from the library; any-hit rate near 4%.

`CCc1ccc(C=NNC(=O)c2nnn(-c3nonc3N)c2C(C)C)cc1` gave Sa ugtP lethal -6, Mtb hypoxia rep -2, RN4220 kill -2.2 and Mtb hypoxia rep growth 9.
For Clc1ccc(CSc2nnc(-c3cccnc3)n2Cc2ccco2)c(Cl)c1 the results were BJeLR viability -4, Sa ugtP lethal -19, Mtb hypoxia rep 18, Bead autofluor 5956, RN4220 kill 1.9, PrP UTR inh -17 and Mtb hypoxia rep growth 13.
O=S1(=O)N(Cc2ccccc2F)CCCN1Cc1c(F)cccc1Cl was read as BJeLR viability -3, Sa ugtP lethal 12, Mtb hypoxia rep 16, Bead autofluor 3652, RN4220 kill 6.4, PrP UTR inh -16 and Mtb hypoxia rep growth 5.
Screening O=C(CSc1nnc(NC(=O)C2CCC2)s1)Nc1ccccc1 returned BJeLR viability -4, Sa ugtP lethal 23, Mtb hypoxia rep 13, Bead autofluor 3654, RN4220 kill 0.7, PrP UTR inh -20 and Mtb hypoxia rep growth 6.
C=CCNC(=S)Nc1ccc(Cl)c(S(=O)(=O)N2CCOCC2)c1 was read as BJeLR viability 0, Sa ugtP lethal -4, Mtb hypoxia rep -6, Bead autofluor 4336, RN4220 kill 3.1, PrP UTR inh -27 and Mtb hypoxia rep growth 6.
Screening O=C1c2ccccc2C(=O)c2c1oc(C(F)(F)F)c2C(=O)c1ccccc1 returned BJeLR viability 5, Sa ugtP lethal 79*, Bead autofluor 2347, RN4220 kill 94* and PrP UTR inh -38.
CC(C)NS(=O)(=O)c1ccc(OCC(=O)N(C)Cc2ccccc2)cc1 was read as BJeLR viability -5, Sa ugtP lethal 11, Mtb hypoxia rep 12, Bead autofluor 7871, RN4220 kill 5.7, PrP UTR inh -7 and Mtb hypoxia rep growth 4.
Screening C=C(CC1([C@@H](NP(=O)(c2ccccc2)c2ccccc2)[C@H]2C[C@@H]2CCCC)CC1)c1ccccc1 returned BJeLR viability -6, Bead autofluor 4312 and PrP UTR inh -3.
For O=C(NC(=S)Nc1ccc(Cl)cn1)c1cccs1 the results were BJeLR viability -1, Sa ugtP lethal -18, Mtb hypoxia rep 2, Bead autofluor 3333, RN4220 kill 1.9, PrP UTR inh -84 and Mtb hypoxia rep growth 3.
`CC(=O)c1sc(NN=Cc2cccc([N+](=O)[O-])c2)nc1C` gave Sa ugtP lethal 7, Mtb hypoxia rep 1, RN4220 kill 5.4 and Mtb hypoxia rep growth 0.
`O=C(CSCc1ccc([N+](=O)[O-])cc1)N/N=C/c1ccncc1` gave BJeLR viability 2, Bead autofluor 2233 and PrP UTR inh -24.
O=C(NCC(=O)N(c1cccc(F)c1)C(C(=O)NCC1CCCO1)c1ccccc1)c1ccco1 (stereo not drawn) was read as BJeLR viability -7, Sa ugtP lethal 3, Mtb hypoxia rep 11, Bead autofluor 8348, RN4220 kill 3.2, PrP UTR inh -6 and Mtb hypoxia rep growth 9.
`COc1ccc(OC)c(S(=O)(=O)ON2C(=O)c3ccccc3C2=O)c1` gave BJeLR viability 23, Sa ugtP lethal 3, Mtb hypoxia rep 8, Bead autofluor 8155, RN4220 kill 3.9, PrP UTR inh -22 and Mtb hypoxia rep growth 18.
O=C(C=Cc1cccnc1)c1ccccc1 was read as Sa ugtP lethal 5, Mtb hypoxia rep 19, Bead autofluor 3613, RN4220 kill 13, PrP UTR inh -27 and Mtb hypoxia rep growth 10.
Screening C/C(=N\NC(=O)c1c([N+](=O)[O-])c(C)nn1C)c1ccc(NC(=O)C2CCCC2)cc1 returned BJeLR viability 42, Bead autofluor 5442 and PrP UTR inh 67*.
CC[N+](CC)(CC#Cc1ccccc1)CC#Cc1ccccc1 was read as BJeLR viability 14, Sa ugtP lethal 4, Mtb hypoxia rep 11, Bead autofluor 5639, RN4220 kill 4.1, PrP UTR inh -20 and Mtb hypoxia rep growth 14.
Screening CC(=O)N(C)c1ccc(N=Cc2cc3c(cc2[N+](=O)[O-])OCO3)cc1 returned BJeLR viability -9, Sa ugtP lethal 6, Mtb hypoxia rep 9, Bead autofluor 6105, RN4220 kill 0.9, PrP UTR inh -33 and Mtb hypoxia rep growth -2.
For COc1ccccc1NC(=O)C(C)NC(c1ccccc1)c1ccccc1 (stereo not drawn) the results were BJeLR viability 11, Sa ugtP lethal 18, Mtb hypoxia rep 12, Bead autofluor 5322, RN4220 kill 2.1, PrP UTR inh -10 and Mtb hypoxia rep growth 0.
`CN(Cc1ccccc1)C(=O)CSc1nc2c(c(C(F)(F)F)n1)CCc1ccccc1-2` gave BJeLR viability -2, Sa ugtP lethal 17, Mtb hypoxia rep 15, Bead autofluor 4131, RN4220 kill 6.1, PrP UTR inh -9 and Mtb hypoxia rep growth 1.
Screening Cc1ccc(NC(=S)NNC(=S)Nc2ccc(C)cc2)cc1 returned Sa ugtP lethal -6, Mtb hypoxia rep 10, Bead autofluor 3889, RN4220 kill 3.3, PrP UTR inh -33 and Mtb hypoxia rep growth 9.
For CCOc1cc(CNC)ccc1OCC(=O)NC(C)(C)C the results were BJeLR viability 2, Sa ugtP lethal 2, Mtb hypoxia rep 15, Bead autofluor 2592, RN4220 kill 8.7, PrP UTR inh -6 and Mtb hypoxia rep growth -1.
Cc1csc(SCc2ccccc2C(=O)O)n1 was read as BJeLR viability -4, Sa ugtP lethal 4, Mtb hypoxia rep 8, Bead autofluor 7852, RN4220 kill -0.6, PrP UTR inh -34 and Mtb hypoxia rep growth 1.
COc1ccc(NC(=O)CN(C)C(=O)c2ccccc2OCC(=O)Nc2cccc(C(F)(F)F)c2)cc1 was read as BJeLR viability -11, Sa ugtP lethal 4, Mtb hypoxia rep -7, RN4220 kill 1.1, PrP UTR inh -18 and Mtb hypoxia rep growth -3.
C/C(N)=C(/C#N)C(=O)COC(=O)C1CCN(S(=O)(=O)c2cccs2)CC1 was read as Sa ugtP lethal 3, Mtb hypoxia rep 11, Bead autofluor 3695, RN4220 kill 6.1, PrP UTR inh -17 and Mtb hypoxia rep growth 8.
`Cn1c(Cn2c(=O)sc3ccccc32)nnc1SCC(=O)N1CCCCCC1` gave BJeLR viability -5, Sa ugtP lethal 5, Bead autofluor 6066, RN4220 kill 4.6 and PrP UTR inh -1.
Screening CC(C)c1cc(=O)[nH]c(N2CCN(Cc3ccc4c(c3)OCO4)CC2)n1 returned BJeLR viability -2, Sa ugtP lethal 15, Mtb hypoxia rep -1, RN4220 kill 4.6, PrP UTR inh -9 and Mtb hypoxia rep growth 2.
Cc1ccc(C(=O)O/N=C/c2c(N3CCOCC3)n(C)c3ccccc23)cc1 was read as BJeLR viability 18, Bead autofluor 5928 and PrP UTR inh -18.
`Cc1csc(NC(=O)c2ccc(OCC3CCCO3)cc2)n1` (stereo not drawn) gave BJeLR viability 3, Sa ugtP lethal 5, Mtb hypoxia rep 13, Bead autofluor 4020, RN4220 kill 6.3, PrP UTR inh 4 and Mtb hypoxia rep growth 10.
For Cc1ccc(-c2nnn(CC(=O)N(Cc3ccccc3)C(C(=O)NC(C)(C)C)c3ccncc3)n2)o1 (stereo not drawn) the results were BJeLR viability 4, Sa ugtP lethal -1, Mtb hypoxia rep 11, Bead autofluor 20840*, RN4220 kill 1.9, PrP UTR inh -23 and Mtb hypoxia rep growth 15.
Screening COc1ccc(C2=CC(=O)CC(c3ccccc3)C2)cc1 (stereo not drawn) returned BJeLR viability -3, Sa ugtP lethal 3, Mtb hypoxia rep 17, Bead autofluor 4875, RN4220 kill 12, PrP UTR inh -11 and Mtb hypoxia rep growth 8.
`Cc1nnc(C)n1N=Cc1cccc(Oc2ccccc2)c1` gave Sa ugtP lethal 14, Mtb hypoxia rep 11, RN4220 kill 5.1 and Mtb hypoxia rep growth -2.
For O=C(CCNS(=O)(=O)c1ccc(Br)cc1)NCc1ccc(Cl)cc1 the results were BJeLR viability 2, Sa ugtP lethal 0, Mtb hypoxia rep 13, Bead autofluor 5545, RN4220 kill -3.2, PrP UTR inh -7 and Mtb hypoxia rep growth 2.
Cc1ccc2c(c1)NC(=O)c1cccnc1N2 was read as BJeLR viability 0, Sa ugtP lethal -9, Mtb hypoxia rep -3, Bead autofluor 3094, RN4220 kill -8.7, PrP UTR inh -76 and Mtb hypoxia rep growth -2.
CS(=O)(=O)C1=NSC2=NC(=O)/C(=C\c3ccc(-c4ccccc4)o3)C(=N)N21 was read as Sa ugtP lethal 1, Mtb hypoxia rep 14, RN4220 kill 12 and Mtb hypoxia rep growth 2.
O=C(N/N=C/c1ccc(Br)s1)c1ccncc1 was read as BJeLR viability 2, Bead autofluor 3359 and PrP UTR inh 0.
Screening O=C1c2ccccc2NC(c2ccc(O)cc2)N1c1ccccc1 (stereo not drawn) returned BJeLR viability -18, Sa ugtP lethal 9, Mtb hypoxia rep 6, Bead autofluor 3863, RN4220 kill 2.5, PrP UTR inh -30 and Mtb hypoxia rep growth -4.
Screening O=C(Cc1ccccc1)NN=Cc1ccc(Cl)cc1Cl returned Sa ugtP lethal -18, Mtb hypoxia rep 3, RN4220 kill -5.0 and Mtb hypoxia rep growth -4.
COc1cccc(/C=C/C(=O)NNC(=O)c2ccccc2)c1OC was read as Sa ugtP lethal 3, Mtb hypoxia rep 6, Bead autofluor 4114, RN4220 kill 2.3, PrP UTR inh -58 and Mtb hypoxia rep growth 4.
Cc1ccc([N+](=O)[O-])c(OCCCN2C(=O)NC(C)(C)C2=O)c1 was read as BJeLR viability 2, Sa ugtP lethal 7, Mtb hypoxia rep 3, Bead autofluor 4040, RN4220 kill 3.5, PrP UTR inh 29 and Mtb hypoxia rep growth 9.
Screening Cc1cc(C)nc(Sc2ccc(C=O)cc2[N+](=O)[O-])n1 returned BJeLR viability 21, Sa ugtP lethal 7, Mtb hypoxia rep 15, Bead autofluor 2969, RN4220 kill 4.4, PrP UTR inh -1 and Mtb hypoxia rep growth 8.
Screening CC(Oc1ccc2ccc(=O)oc2c1)C(=O)c1ccccc1 (stereo not drawn) returned BJeLR viability 0, Sa ugtP lethal 15, Mtb hypoxia rep 16, Bead autofluor 2234, RN4220 kill 8.8, PrP UTR inh -13 and Mtb hypoxia rep growth 6.
CCOC(=O)C1(Cc2cccc(OC)c2)CCCN(C(=O)CNC(C)=O)C1 (stereo not drawn) was read as BJeLR viability -3, Sa ugtP lethal 3, Mtb hypoxia rep -3, Bead autofluor 4107, RN4220 kill 0.9, PrP UTR inh -55 and Mtb hypoxia rep growth 6.
For O=C(c1cccc(Cl)c1)N1CCN(c2ncnc3c2cnn3-c2ccccc2)CC1 the results were BJeLR viability 4, Sa ugtP lethal -2, Mtb hypoxia rep -3, Bead autofluor 3725, RN4220 kill -5.6, PrP UTR inh -12 and Mtb hypoxia rep growth -10.
For CCN(CC)c1ccc(NC(=O)COc2ccccc2C#N)cc1S(=O)(=O)Nc1ccc(OC)cc1 the results were BJeLR viability -7, Sa ugtP lethal -27, Mtb hypoxia rep -3, Bead autofluor 2502, RN4220 kill 3.5, PrP UTR inh -17 and Mtb hypoxia rep growth -2.
For O=C(NCCS(=O)(=O)c1ccc(Br)cc1)c1c(F)cccc1F the results were BJeLR viability 7, Sa ugtP lethal 2, Mtb hypoxia rep -8, Bead autofluor 5843, RN4220 kill -1.0, PrP UTR inh 11 and Mtb hypoxia rep growth -1.
Screening O=C(/C=C/c1ccccc1O)c1ccccc1 returned Sa ugtP lethal 2, Mtb hypoxia rep 19, Bead autofluor 3684, RN4220 kill 1.2, PrP UTR inh -35 and Mtb hypoxia rep growth 9.
CCN(CC)CCNC(C(=O)Nc1cccc(C(C)=O)c1)c1ccccc1 (stereo not drawn) was read as BJeLR viability -3, Sa ugtP lethal 0, Mtb hypoxia rep 13, Bead autofluor 2732, RN4220 kill 2.6, PrP UTR inh -2 and Mtb hypoxia rep growth 4.
For Cc1ccc(CSc2nnc(Cn3c(=O)sc4ccccc43)n2C)cc1 the results were BJeLR viability 4, Sa ugtP lethal 7, Bead autofluor 6171, RN4220 kill 6.3 and PrP UTR inh 1.

Entries from the list above that contain a tert-butyl group (two):
For CCOc1cc(CNC)ccc1OCC(=O)NC(C)(C)C the results were BJeLR viability 2, Sa ugtP lethal 2, Mtb hypoxia rep 15, Bead autofluor 2592, RN4220 kill 8.7, PrP UTR inh -6 and Mtb hypoxia rep growth -1.
For Cc1ccc(-c2nnn(CC(=O)N(Cc3ccccc3)C(C(=O)NC(C)(C)C)c3ccncc3)n2)o1 (stereo not drawn) the results were BJeLR viability 4, Sa ugtP lethal -1, Mtb hypoxia rep 11, Bead autofluor 20840*, RN4220 kill 1.9, PrP UTR inh -23 and Mtb hypoxia rep growth 15.

Compound activity: PubChem BioAssay, several laboratories
